ClpP mod: qHTS Assay for Activators of ClpP. ATP-dependent Clp protease proteolytic subunit (Bacillus subtilis (strain 168)), P80244. purified B. subtilis ClpP, FRET peptide cleavage, 20 min. Potency, µM (doses to about 57.5 µM), inactives show top-dose activity change, negative = active. 1.9% of 340,000 active. AID 651965, 2013; active = well fitted falling curve with a large enough effect; inconclusive = small, poorly fitted or top-dose-only effect; inactive = no such curve, though single readings can be large or run the other way; note: potency is the fitted concentration of half-maximal effect; the source files actives as falling curves though it sought activators and does not explain the sign; nearly all actives have a fitted effect of over 65% in size; many hits overshoot -100%
Target sequence (P80244 whole entry, looked up): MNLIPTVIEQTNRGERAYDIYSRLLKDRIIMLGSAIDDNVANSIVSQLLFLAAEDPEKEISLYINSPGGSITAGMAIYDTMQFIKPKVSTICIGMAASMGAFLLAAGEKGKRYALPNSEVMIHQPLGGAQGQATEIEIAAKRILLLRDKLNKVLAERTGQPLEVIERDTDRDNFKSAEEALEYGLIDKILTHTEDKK
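Buffer: 100 mM Tris/HCl pH8, 100 mM KCl, 0.05% low protease BSA, 2.5% glycerol, 0.01% Tween-20. ClpP 10 microg/mL final; 20 min RT; delta FRET normalized to ADEP and DMSO controls.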
PINK1 expr mod: A Quantitative High throughput Screen to Identify Chemical Modulators of PINK1 Expression. PINK1 immunofluorescence, high-content cytometry, 24 h. Potency, µM (doses to about 76.6 µM), for the others: at the top dose activation (PINK1 increase), hits mostly activators. 0.2% of 410,000 active; active = well fitted activation curve with a large enough effect; inconclusive = small, poorly fitted or top-dose-only effect; inactive = flat fitted curve, though single readings scatter; cell line not stated here;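 note: potency is the fitted concentration of half-maximal effect; % of control where 0% means no effect; nearly all actives have a fitted effect of over 65% in size; a mitochondrial uncoupler was the plate control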
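Readout is PINK1 immunofluorescence, quantified alongside mitochondrial, cell and nuclear markers by laser-scanning microplate cytometry. Cells from a stable line were exposed to compound titrations (5 concentrations) for 24 hours, with CCCP controls.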
TRPML1 inh: qHTS for Inhibitors of the Human Mucolipin Transient Receptor Potential 1 (TRPML1). TRPML1-inducible cells, Ca2+ dye fluorescence, FDSS; stronger effect = lower value; inhibition of EC80 agonist-evoked calcium signal. activity change, negative = inhibition, % (no concentration beside the values). 0.02% of 390,000 active. AID 624415, 2012; in the data active means activity change below about -50%; inconclusive means about -30% to -50%; inactive means above about -30%;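 note: stimulus is agonist 54-4 at its EC80 concentration; % is set by controls: 0 for no effect and ±100 for the full control effect; compound concentration not given in the record; the text of the record puts the active cut at -80%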
Target sequence (Q9GZU1 whole entry, looked up): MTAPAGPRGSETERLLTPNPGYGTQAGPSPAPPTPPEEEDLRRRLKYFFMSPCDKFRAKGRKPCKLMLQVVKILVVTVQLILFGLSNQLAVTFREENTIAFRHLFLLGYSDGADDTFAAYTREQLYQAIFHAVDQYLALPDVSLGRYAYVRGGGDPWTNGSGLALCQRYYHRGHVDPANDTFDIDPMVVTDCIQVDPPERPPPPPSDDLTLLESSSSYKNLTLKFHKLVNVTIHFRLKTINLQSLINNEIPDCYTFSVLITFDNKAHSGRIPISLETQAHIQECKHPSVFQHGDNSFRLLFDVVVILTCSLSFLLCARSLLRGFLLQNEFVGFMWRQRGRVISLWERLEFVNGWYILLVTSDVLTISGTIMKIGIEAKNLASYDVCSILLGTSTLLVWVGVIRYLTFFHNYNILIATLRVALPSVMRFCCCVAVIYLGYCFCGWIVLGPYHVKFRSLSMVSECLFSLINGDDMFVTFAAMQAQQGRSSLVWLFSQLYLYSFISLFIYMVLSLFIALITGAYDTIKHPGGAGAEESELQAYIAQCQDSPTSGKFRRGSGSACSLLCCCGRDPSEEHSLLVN
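Calcium fluorescence in TRPML1-DL cells induced overnight with Tet: a 110 s read after compound pin addition, then a 110 s antagonist read after challenge with 54-4 at 4 uM final (EC80).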
Sfp PPTase inh: qHTS Assay for Inhibitors of Bacillus subtilis Sfp phosphopantetheinyl transferase (PPTase); 4'-phosphopantetheinyl transferase ffp (Bacillus subtilis), Q9F4F7; Potency, µM, for inactives: max response, negative = inhibition, usual class: inhibitors; 3.5% of 310,000 active; Biochemical Sfp PPTase activity, qHTS; active = well fitted inhibition curve with a large enough effect; inconclusive = small, poorly fitted or top-dose-only effect, or another doubt; inactive = no such curve, though single readings can be large or run the other way;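 note: the enzyme is Sfp with the accession as filed and its product quenches rhodamine fluorescence; potency is the fitted concentration of half-maximal effect; 0% = enzyme reaction without inhibitor and -100% = no enzyme wells; top concentration of the series not given in the record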
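Compounds were incubated with enzyme (final 15 nM) for 15 min at room temperature before substrate addition started the reaction. Fluorescence at 525 nm excitation, 598 nm emission was recorded immediately and after 30 minutes.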
TRPML1 agonist: qHTS for Agonists of the Human Mucolipin Transient Receptor Potential 1 (TRPML1) | activation, % (concentration not given with the values) | AID 624414, 2012 | 0.12% of 410,000 active | Mucolipin-1 (Homo sapiens), Q9GZU1 | TRPML1-expressing cells, Ca2+ dye fluorescence, FDSS; host cell line not named in the record; reference of the full effect not given here; in the data active = activation above about 50%; inconclusive = about 30% to 50%; inactive = below about 30%; note: 0% is about no effect; the text of the record puts the active cut at 80%
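Kinetic FDSS Ca2+ read in Tet-induced TRPML1-DL cells (ABD Ca8 dye plus quencher, 45-90 min RT loading): baseline, then compound, then 110 s agonist window; EC80 agonist 54-4 at 4uM final added afterwards for a 110 s antagonist window.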
TRPV1 PAM: HTS Assay for Compounds that Act as Potentiators of the Vanilloid Receptor 1; TRPV1-expressing cells, Fluo-8 calcium influx, capsaicin EC20 potentiation; host cell line not named in the record; control for the full effect not named in the record; Transient receptor potential cation channel subfamily V member 1 (Homo sapiens), Q8NER1; potentiation, % at 8.33 µM; 0.02% of 320,000 active; active means potentiation above 80%; inconclusive means 30% to 80%; inactive means below 30%; note: 0% is about no effect
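TRPV1-expressing cells were cultured overnight at 35.5C and loaded with Fluo-8 calcium dye for 40 to 90 min at room temperature. After a 10 s baseline, compound was added and calcium influx was read kinetically for 3 min (ex 480/em 520 nm).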
Menin-MLL FL inh: qHTS Assay for Inhibitors Targeting the Menin-MLL Interaction in MLL Related Leukemias: Competition With Fluorescein Labeled MLL-derived Peptide; FP activity change, % at 61.4 µM; Fluorescence polarization, fluorescein-MLL peptide displacement from menin; 290,000 tested, under 10 active; inconclusive = falling polarisation curve, or a change in total fluorescence; inactive = total fluorescence flat and polarisation flat or rising; no compound was filed as active; the % refers to the polarisation; negative = inhibition;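 note: % of control where 0% means no effect; inhibitors lower the polarisation; unlabelled MLL peptide was the positive control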
Starred values were filed as active, the others as inactive; ? = inconclusive; · = not tested or not shown; [ ] = dose if it differs, or a comment.

Sequence of screens – ClpP mod	PINK1 expr mod	TRPML1 inh	Sfp PPTase inh	TRPML1 agonist	TRPV1 PAM	Menin-MLL FL inh
CSc1ccc(-c2cccc([N+](=O)[O-])c2)nn1
  ·	1.0%	4	4%	-0.3	3	-1.6
COc1ccc(-c2noc(CN(C)S(=O)(=O)c3ccccc3)n2)cc1OC
  1.5%	-2.4%	-14	·	1.3	·	·
O=C(COc1ccc(F)cc1Br)Nc1ccccc1N1CCCC1
  -0.3%	19%	-2	·	-0.5	·	·
O=C(CSc1nc2[nH]ncc2c(=O)[nH]1)Nc1cccc(Cl)c1
  ·	1.0%	-1	·	-0.9	7	·
Cn1nnnc1SCCNCc1ccc(OCc2ccc(Cl)cc2)cc1
  1.4%	0.0%	19	·	3.0	·	·
COc1ccccc1NCN1C(=O)CCC1=O
  0.5%	0.2%	19	16%	-0.4	-21	2.8
CCN1/C(=C/C=C/c2sc3ccccc3[n+]2CC)Sc2ccccc21
  0.9%	?	-4	79µM*	-0.3	11	?
CCc1cccc(NC(=O)CN(c2ccc(C)c(C)c2)S(=O)(=O)c2ccsc2C(=O)OC)c1
  0.8%	1.6%	-9	·	2.6	·	·
Cc1cn2c(=O)cc(COC(=O)COc3ccccc3C)nc2s1
  -6.4%	-1.2%	-10	·	-1.2	·	·
Cc1cc(=O)[nH]c(SCC(=O)Nc2cc(S(=O)(=O)N(C)C)ccc2Cl)n1
  0.5%	0.6%	26	1%	-0.1	1	-0.1
COc1ccc(C(C(=O)NC2CCCC2)N(Cc2ccco2)C(=O)c2snc(C(N)=O)c2N)cc1OC (stereo not drawn)
  -15%	-0.4%	5	2%	1.9	1	·
N#Cc1cccc(C(=O)Nc2cccc(S(=O)(=O)N3CCCC3)c2)c1
  -1.2%	0.7%	2	9%	-0.4	-7	·
COc1cccc(CNS(=O)(=O)c2cccc(S(=O)(=O)N3CCOCC3)c2)c1
  -1.3%	2.7%[38.3 µM]	9	16%	0.3	24	-0.5
COc1ccc(CNc2ncncc2-c2ccccc2Cl)c(OC)c1
  ·	1.2%	·	?	·	·	-7.6
Cc1ccccc1CSc1nc2cccnc2n1Cc1ccc(C(=O)NC2CC2)cc1
  4.6%	1.7%	15	·	0.4	·	·

More results follow:
Sequence of screens – ClpP mod	PINK1 expr mod	TRPML1 inh	Sfp PPTase inh	TRPML1 agonist	TRPV1 PAM	Menin-MLL FL inh
CC1(c2ccc(OC(F)F)cc2)NC(=O)N(CC(=O)NC2CCCC2)C1=O (stereo not drawn)
  -1.2%	-0.6%	3	·	1.8	-6	·
COc1ccc(S(=O)(=O)N(C)C)cc1NC(=O)CCCSc1ccccc1
  ·	-0.2%	45	-9%	0.3	27	0.2
O=C(c1ccc2c3n(nc2c1)-c1ccc(Cl)cc1CO3)N1CCOCC1
  -13%	-0.3%	6	12%	-0.7	19	3.8
O=C(NC(=S)Nc1ccccc1)c1csnn1
  -0.9%	-3.2%[38.3 µM]	-5	50µM*	0.1	21	6.0
OC1COCOC1C(O)C1OCOCC1O (stereo not drawn)
  ·	-1.7%	4	·	0.1	·	·
COc1cccc(/C=N/NC(=O)c2ccccc2NC(=O)c2ccco2)c1OC
  -4.8%	2.0%	23	26%	1.1	-24	0.1
COc1ccc(-c2nc3ccc(C)cn3c2Nc2ccc3c(c2)OCO3)cc1
  ?	-3.9%	58	·	0.9	·	·
CCCCN(C(=O)c1ccc(-n2nc(C)cc2C)cc1)c1c(N)n(CCC)c(=O)[nH]c1=O
  -7.6%	-0.5%	2	·	-0.7	-9	·
CC1(C)CC(=O)C(C=NCCN2CCN(C3CC(=O)N(c4ccc(Br)cc4)C3=O)CC2)=C(O)C1 (stereo not drawn)
  ·	0.2%	3	12%	-0.6	13	-2.5
CCN(CCc1ccccc1)c1ccc2c(c1)C1CC2CCN1C(=O)OCc1ccccc1 (stereo not drawn)
  -15%	1.6%	11	·	0.2	·	·
O=C(COC(=O)CNS(=O)(=O)c1cc(C(F)(F)F)ccc1Cl)NC1CC1
  -1.5%	0.8%	37	·	-0.1	·	·
N=C1/C(=C\c2ccc(OC(=O)c3ccc(F)cc3)cc2)C(=O)N=C2SC(N3CCOCC3)=NN12
  -2.4%	1.4%	-3	-20%	-0.1	4	0.1
O=C(Nc1ccccc1)/C(=C\c1ccccc1)NC(=O)c1ccco1
  ·	10%	8	-9%	0.9	14	2.3
CCN(CC)CCNC(=O)C1c2cc(OC)c(OC)cc2C(=O)N(C)C1c1cccs1 (stereo not drawn)
  -19%	-0.5%	3	-4%	-0.2	-7	-2.2
CC1=CCn2c(=O)c3ccccc3c(=O)n2C1
  ·	-1.1%	-15	7%	-0.2	3	3.0

Single records, from the list above. Screens in order: ClpP mod, PINK1 expr mod, TRPML1 inh, Sfp PPTase inh, TRPML1 agonist, TRPV1 PAM, Menin-MLL FL inh
Entry for O=C(Nc1ccccc1)/C(=C\c1ccccc1)NC(=O)c1ccco1 = ·, 10%, 8, -9%, 0.9, 14, 2.3
Entry for CCCCN(C(=O)c1ccc(-n2nc(C)cc2C)cc1)c1c(N)n(CCC)c(=O)[nH]c1=O = -7.6%, -0.5%, 2, ·, -0.7, -9, ·

Remaining list, next part:
Sequence of screens – ClpP mod	PINK1 expr mod	TRPML1 inh	Sfp PPTase inh	TRPML1 agonist	TRPV1 PAM	Menin-MLL FL inh
Cc1noc(C(=O)Nc2ccc(C#N)cc2)c1Cl
  ·	-2.1%	2	9%	-0.9	-2	0.9
CS(=O)(=O)N(Cc1ccc(F)cc1)Cc1nc2ccccc2c(=O)[nH]1
  -0.3%	-0.5%	7	6%	0.3	-7	3.2
O=C(O)CC1(CC(=O)Nc2ccc3ccccc3c2)CCCCC1
  -0.6%	1.1%	-5	18%	-0.8	14	-0.7
NS(=O)(=O)c1ccc(CCNc2ccnc3cc(Cl)ccc23)cc1
  ·	1.4%	7	18%	-0.1	-2	-15
Cc1cccnc1NC(=S)Nc1ccc(Cl)c(Cl)c1
  -15%	4.2%	10	14µM*	1.0	0	-5.4
COCCn1c(SC2CCCCC2=O)nnc1-c1ccncc1 (stereo not drawn)
  -1.1%	1.9%	13	?	-0.8	1	-0.8
CCNc1ncc2nc(CCc3ccccc3)c(=O)n(CCOC)c2n1
  ·	2.5%	·	39%[activator]	·	·	3.2
O=C(CNC(=O)c1ccccc1F)OCn1nnc2ccccc2c1=O
  -1.1%	-0.1%	-8	·	4.1	?	·
Cc1cc(NC(=O)CSc2nnc(CNC(=O)c3ccccc3)o2)no1
  1.0%	-1.0%	20	15%	-0.2	-17	·
O=C(NNC(=O)c1ccc(Br)o1)c1ccc(NC(=O)c2ccccc2)cc1
  ·	3.6%	2	12%	-0.5	8	-3.2
CC(C)(C)NCC(O)COc1ccccc1C(=O)CCc1ccccc1 (stereo not drawn)
  -7.2%	·	-9	7%	-0.2	12	-0.5
Cc1ccc(/C=C(\C#N)c2nc3ccccc3[nH]2)s1
  0.2%	·	2	-1%	0.4	27	7.4
O=c1c(-c2ccccc2)nc2cnc(N3CCNCC3)nc2n1Cc1ccc(F)cc1
  ·	8.1%	·	-11%	·	·	-6.7
CCn1cc(C(=O)N2CCN(c3ccc(F)cc3)CC2)c(=O)c2cc(S(=O)(=O)N3CCOCC3)ccc21
  0.1%	0.7%	-2	·	-0.5	·	·
CCOc1ccccc1NC(=O)Cn1c(=O)n(CCCC(=O)NCc2ccc(C)cc2)c(=O)c2ccccc21
  1.0%	5.6%	1	·	0.0	·	·

Next entries
Sequence of screens – ClpP mod	PINK1 expr mod	TRPML1 inh	Sfp PPTase inh	TRPML1 agonist	TRPV1 PAM	Menin-MLL FL inh
Cc1cc(OCC(=O)NCC(c2cccs2)N2CCOCC2)ccc1C(C)C (stereo not drawn)
  ·	0.9%	14	·	2.3	-3	·
CC1(C)Cc2ccccc2C(Nn2cnnc2)=N1
  -0.6%	0.1%[38.3 µM]	-6	8%	0.6	18	2.2
O=C(COC(=O)c1ccc(Br)o1)Nc1cccc(S(=O)(=O)N2CCOCC2)c1
  ·	0.9%	11	·	-0.7	·	·
CC(=O)c1sc(NC(=O)c2ccc(C(C)(C)C)cc2)nc1C
  -6.2%	2.9%	-3	5%	-0.6	13	-4.3
Cc1cc(C(=O)N2CCC(Cc3ccccc3)CC2)no1
  -0.2%	0.1%	3	8%	0.0	-9	·
COc1ccc(NC(=O)Cc2c(F)cccc2Cl)cc1
  0.5%	0.4%	-10	2%	2.9	-2	-5.0
N#C/C(C(N)=O)=C1/CCc2ccccc2N1
  -1.6%	-3.2%[38.3 µM]	5	7%	1.6	-10	5.8
O=C(/C=C/c1ccc(S(=O)(=O)N2CCOCC2)cc1)NC(=S)NCCCn1ccnc1
  ·	0.6%	-1	11%	0.9	1	1.0
CCc1ccccc1NC(=O)N[C@H](C(=O)O)C(C)CC (stereo partly drawn)
  -0.8%	2.5%	-1	16%	-0.7	18	-3.3
Cn1c(=O)c(CCc2ccccc2)nc2cncnc21
  ·	-1.2%	·	9%	·	·	2.6
CCOC(=O)N1CCC(Nc2c(Nc3ccc(C)c(C)c3)c(=O)c2=O)CC1
  -1.3%	13%[38.3 µM]	1	-6%	0.7	?	4.9
COc1cc(/C=C2/C(=O)N=C(N)N2C)cc(OC)c1OC
  -2.1%	-0.7%	-5	-1%	-0.5	7	2.8
CN(C)C(=O)c1ccc(NC(=O)c2cccc(-n3cnnn3)c2)cc1
  -1.6%	-0.9%	2	·	0.2	·	·
COc1ccc(C2=NC(C)(C)N(CC(=O)Nc3cccc(C)c3)C2=O)cc1
  -11%	2.2%	-16	·	-0.5	·	·

Rows are unselected. About 4.4% of those tested had a hit in this group.
